GLA inh pH 4.5 – alpha-galactosidase A (human) inhibition, pH 4.5; P06280; purified enzyme, 4-MU-alpha-Gal fluorescence, pH 4.5; activity change, negative = inhibition, % at 105 µM; 230,000 tested, under 10 active; inconclusive = small, poorly fitted or top-dose-only inhibition, or a rising curve; inactive = flat fitted curve, though single readings scatter; no compound was filed as active;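 note: 0% = full activity with enzyme and -100% = basal without enzyme; dose as in the result columns while the protocol names 77 µM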
Target sequence (P06280 whole entry, looked up): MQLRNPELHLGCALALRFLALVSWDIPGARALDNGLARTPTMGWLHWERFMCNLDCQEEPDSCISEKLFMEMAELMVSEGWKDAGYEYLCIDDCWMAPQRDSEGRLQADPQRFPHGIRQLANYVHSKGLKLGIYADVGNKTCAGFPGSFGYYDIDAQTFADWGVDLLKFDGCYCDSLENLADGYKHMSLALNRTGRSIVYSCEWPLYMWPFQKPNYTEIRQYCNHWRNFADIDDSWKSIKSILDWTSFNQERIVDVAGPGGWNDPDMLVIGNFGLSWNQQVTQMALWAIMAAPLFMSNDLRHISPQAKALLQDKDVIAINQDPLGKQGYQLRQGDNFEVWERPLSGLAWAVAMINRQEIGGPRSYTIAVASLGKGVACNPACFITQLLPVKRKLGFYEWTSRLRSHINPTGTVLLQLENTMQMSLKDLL
Rango release inh – prevents RanGTP from dissociating the Rango-importin beta complex; O95149+P62826; Biochemical FRET Rango-importin beta, RanGTP-induced dissociation; Potency, µM (series often up to 46.1 µM), for the others: at the top dose activity change, negative = inhibition; 340,000 compounds, 0.071% hits; active means falling FRET ratio curve, often poorly fitted, with flat reads before Ran was added; inconclusive means other falling curves, or compound fluorescence or quenching; inactive means flat or rising ratio curve;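 note: potency is the fitted concentration of half-maximal effect; % of control where 0% means no effect; nearly all actives have a fitted effect of over 45% in size; -100% = wells without RanGTP and RCC1; the record marks most hits as doubtful in a second field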
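Quantitative HTS using a FRET biosensor: 0.1 uM Rango, 0.25 uM importin beta, 0.6 uM Ran, 2 mM GTP, 0.2 uM RCC1 final, PBS with DTT, Tween-20 and BSA. Post-read taken 45 min after Ran addition.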
Rango-impB inh – prevents formation of the Rango-importin beta complex; Q14974; Rango CFP/YFP FRET sensor + importin beta, 45 min; Potency, µM (titrated, usually from 92.2 µM), for the others: top-dose inhibition of complex formation; 340,000 compounds, 0.031% hits; AID 540263; active = rising FRET ratio curve, often small or poorly fitted; inconclusive = mostly compound fluorescence or quenching in the first reads; inactive = flat curves in all reads;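 note: potency is the fitted concentration of half-maximal effect; 0% = DMSO wells and 100% = buffer wells lacking importin beta; nearly all actives have a fitted effect of over 15% in size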
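FRET biosensor (snurportin 1 IBB flanked by EYFP and cerulean), 50 nM, with compound 5 min, then 0.125 microM importin beta in PBS, 1 mM DTT, 0.02% Tween-20, 0.1% BSA. CFP/YFP ratio read after 45 min at room temperature; pre-read flags interference.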
miR-21 reporter – raises the signal of a miR-21 reporter; HeLa miR-21 FLuc reporter, luciferase, 48 h; Potency, µM (highest dose often 38.3 µM), inactives show at the highest dose reporter change, positive = more light; 340,000 tested, under 10 active; AID 2288; active = well fitted rising curve with a large enough effect; inconclusive = small, poorly fitted or top-dose-only effect; inactive = no such curve, though single readings can be large or run the other way;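 note: % of control where 0% means no effect; miR-21 action dims this reporter so a rising signal means less miR-21 action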
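HeLa cells stably expressing CMV-driven firefly luciferase with a downstream miR-21 binding sequence, endogenously expressing miR-21, were treated with titrations (up to about 40uM final) for 48 hours at 37 degree Celsius. Luciferase luminescence was read after lysis.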
Active calls of the source: *. Some of the compounds tested; the hit share may differ from the screen's.

What do the screens show for `Cc1ccc(C)c(S(=O)(=O)Nc2nc3ccc(S(N)(=O)=O)cc3s2)c1`?
GLA inh pH 4.5: -4; Rango release inh: -17%; Rango-impB inh: 3.3%; miR-21 reporter: 1%

Results for Cc1ccc(C)c(OCCCCN2CCCCC2)c1 ?
Rango release inh: 11%; Rango-impB inh: 0.8%; miR-21 reporter: -2%

Results for O=C(Cn1nnc(-c2ccccc2F)n1)Nc1ccc(S(=O)(=O)NC2CCCC2)cc1 ?
GLA inh pH 4.5: -21; Rango release inh: 0%; Rango-impB inh: -0.8%; miR-21 reporter: -2%

Results for O=c1cc(O)n(-c2ccccc2)c(=S)[nH]1 ?
GLA inh pH 4.5: -9; Rango release inh: 7%; Rango-impB inh: -2.7%; miR-21 reporter: 0%

How did CC(C)(C)NC(=S)NNC(=O)c1ccccc1Cl do in these assays?
GLA inh pH 4.5: 6; Rango release inh: 0%; Rango-impB inh: -4.5%; miR-21 reporter: -15%

Results for O=[N+]([O-])c1ccc(N2CCN(CC3CCCCC3)CC2)cc1 ?
Rango release inh: 1%; Rango-impB inh: 3.9%; miR-21 reporter: 0%

What do the screens show for `CN1C(=O)Cc2cc(S(=O)(=O)Nc3ccc(N4CCOCC4)cc3)ccc21`?
Rango release inh: 39%; Rango-impB inh: 2.1%; miR-21 reporter: -1%

What do the screens show for `CCn1c(=O)c2sccc2n(CC(=O)NC2CCCC2)c1=O`?
Rango release inh: 0%; Rango-impB inh: 0.1%; miR-21 reporter: -3%

How did Cc1cccc2cc(C3CC(c4cccs4)=NN3S(C)(=O)=O)c(Cl)nc12 (centres undefined) do in these assays?
GLA inh pH 4.5: -24; Rango release inh: -5%; Rango-impB inh: 1.7%; miR-21 reporter: 1%

How did Cc1ccc2sc(NC(=O)c3ccc(N4C(=O)CCC4=O)cc3)nc2c1C do in these assays?
GLA inh pH 4.5: 2; Rango release inh: -6%; Rango-impB inh: 0.3%; miR-21 reporter: 2%

Results for CC(C)CN(C(=O)COC(=O)c1ccc([N+](=O)[O-])o1)C1CCS(=O)(=O)C1 (centres undefined) ?
GLA inh pH 4.5: -10; Rango release inh: 0%; Rango-impB inh: 0.1%; miR-21 reporter: 12%

How did O=C(Nc1nc(-c2ccccn2)cs1)C12CC3CC(CC(O)(C3)C1)C2 do in these assays?
GLA inh pH 4.5: -1; Rango release inh: -12%; Rango-impB inh: -1.4%; miR-21 reporter: -35%

Results for O=C(/C=C/c1cccc(F)c1)NNC(=O)c1ccncc1 ?
Rango release inh: 18%; Rango-impB inh: 1.4%

How did Cc1nc(SCC(=O)Nc2cc(C)on2)c2c(C)c(C)sc2n1 do in these assays?
GLA inh pH 4.5: 0; Rango release inh: -11%; Rango-impB inh: -0.3%; miR-21 reporter: -2%

How did CC(C)(C)C(=O)Nc1ccc(S(=O)(=O)NC2=NCCCCC2)cc1 do in these assays?
Rango release inh: 30%; Rango-impB inh: 2.0%

How did CC(=O)Nc1ccc(NC(=O)CNC(=O)c2sc3ccccc3c2Cl)cc1 do in these assays?
Rango release inh: -9%; Rango-impB inh: -0.2%

What do the screens show for `COc1cc2c(cc1OC)CN(CCOc1ccc(Br)cc1)CC2`?
Rango release inh: -10%; Rango-impB inh: 0.3%; miR-21 reporter: -5%

What do the screens show for `FC(F)(F)c1cccc(NC(=S)Nc2cccc(Cl)c2)c1`?
GLA inh pH 4.5: 0; Rango release inh: -12%; Rango-impB inh: -2.1%; miR-21 reporter: -1%

Results for Cc1ccccc1OCC(=O)NCC(c1ccco1)N1CCCCC1 (centres undefined) ?
Rango release inh: -19%; Rango-impB inh: 0.3%; miR-21 reporter: -4%

How did O=C(Nc1ccc(S(=O)(=O)NC2=NCCCCC2)cc1)c1ccc(=O)[nH]c1 do in these assays?
GLA inh pH 4.5: 2; Rango release inh: -2%; Rango-impB inh: -2.9%; miR-21 reporter: -3%

What do the screens show for `CC1CCCC(NC(=O)c2nn(C)c3c2CS(=O)(=O)c2ccccc2-3)C1C` (centres undefined)?
Rango release inh: -12%; Rango-impB inh: -2.6%; miR-21 reporter: 2%

What do the screens show for `COc1ccc(Cl)cc1S(=O)(=O)n1c([N+](=O)[O-])cnc1C`?
Rango release inh: 21%; Rango-impB inh: -0.9%; miR-21 reporter: -4%

What do the screens show for `O=C(CNC(=O)c1ccccc1)N/N=C/c1ccccc1Cl`?
GLA inh pH 4.5: -4; Rango release inh: 3%; Rango-impB inh: -4.6%; miR-21 reporter: -17%

How did O=C(O)CSc1cccc2cccc(C(=O)O)c12 do in these assays?
GLA inh pH 4.5: 10; Rango release inh: -4%; Rango-impB inh: -3.1%; miR-21 reporter: -4%

How did O=C(O)c1ccc(NC2(C(=O)O)CCCC2)cc1 do in these assays?
Rango release inh: 9%; Rango-impB inh: 5.1%

How did Cn1c(=O)c2[nH]c(C3CC=CCC3)nc2n(C)c1=O (centres undefined) do in these assays?
Rango release inh: -8%; Rango-impB inh: 2.4%

How did CC1(C)Cc2c(C#N)c(N3CCN(C(=O)c4ccccc4)CC3)nc(-c3ccco3)c2CS1 do in these assays?
GLA inh pH 4.5: 1; Rango release inh: inconclusive; Rango-impB inh: inconclusive; miR-21 reporter: -7%

What do the screens show for `COc1cc(=O)[nH]c(SC(C)C(=O)Nc2cccc3ccccc23)n1` (centres undefined)?
Rango release inh: 10%; Rango-impB inh: -1.8%; miR-21 reporter: 2%

How did O=C(NCCc1ccccc1)c1cc2sccc2n1Cc1ccccc1 do in these assays?
GLA inh pH 4.5: 2; Rango release inh: -14%; Rango-impB inh: -1.6%; miR-21 reporter: -19%

Results for O=S(=O)(Nc1ccccc1)c1ccc(-c2cnc(C3CC3)o2)cc1 ?
Rango release inh: -2%; Rango-impB inh: 0.8%; miR-21 reporter: 14%

Results for CC1=CCC(C(=O)O)(C(=O)N/N=C/c2cccs2)C(c2ccc(Cl)cc2)C1 (centres undefined) ?
GLA inh pH 4.5: 2; Rango release inh: -16%; Rango-impB inh: 3.2%; miR-21 reporter: -9%

What do the screens show for `CCOC(=O)CN1C(=O)N[C@@H](c2cccc(C(F)(F)F)c2)C(C(C)=O)=C1C`?
GLA inh pH 4.5: -3; Rango release inh: 7%; Rango-impB inh: 0.7%

What do the screens show for `Cc1cc(-c2ccccc2)[nH]c(=O)c1C#N`?
GLA inh pH 4.5: 3; Rango release inh: -10%; Rango-impB inh: -4.6%; miR-21 reporter: 2%

What do the screens show for `O=C(CCn1nnc2ccccc21)Nc1nnc(Cc2ccc(F)cc2)s1`?
GLA inh pH 4.5: 5; Rango release inh: -9%; Rango-impB inh: -4.1%; miR-21 reporter: -4%

Results for CC1CC(C)CN(CCCNC(=O)CCNC(=O)Cn2ccc3ccccc3c2=O)C1 (centres undefined) ?
GLA inh pH 4.5: -9; Rango release inh: 0%; Rango-impB inh: -0.1%; miR-21 reporter: 1%

What do the screens show for `COCCCNC(=O)c1ccc2c(=O)n(C3CCCC3)c(=S)[nH]c2c1`?
GLA inh pH 4.5: -12; Rango release inh: -14%; Rango-impB inh: 2.4%; miR-21 reporter: 5%

What do the screens show for `COC(=O)CNC(=O)CSc1ccccn1`?
GLA inh pH 4.5: 9; Rango release inh: 0%; Rango-impB inh: -4.9%; miR-21 reporter: 1%

How did O=C(CN1C2CCCC1CC(NC(=O)c1ccccc1)C2)NC1CC1 (centres undefined) do in these assays?
GLA inh pH 4.5: -1; Rango release inh: 27%; Rango-impB inh: 0.2%; miR-21 reporter: 1%

Results for CCOc1ccc2c(c1)OC(c1ccc(OC)cc1)(C(F)(F)F)NC2=O (centres undefined) ?
GLA inh pH 4.5: 2; Rango release inh: 16%; Rango-impB inh: 3.1%; miR-21 reporter: 2%

Results for Cc1noc(C)c1COc1cccc(C(=O)OCC(=O)N2CC(=O)Nc3ccccc32)c1 ?
GLA inh pH 4.5: 1; Rango release inh: 7%; Rango-impB inh: -1.2%; miR-21 reporter: 12%

How did C[C@H](NC(=O)[C@H](Cc1ccccc1)NC(=O)c1cc2cc(Cl)ccc2n1C)C(=O)O do in these assays?
Rango release inh: 18%; Rango-impB inh: 6.0%; miR-21 reporter: -1%

Results for CSCCC(NC(=O)c1ccccc1Br)C(=O)NCc1ccc(F)cc1 (centres undefined) ?
Rango release inh: -15%; Rango-impB inh: 0.1%; miR-21 reporter: 1%

How did Cc1cccc(CSC(=N)N)c1 do in these assays?
GLA inh pH 4.5: 0; Rango release inh: 4%; Rango-impB inh: 3.2%; miR-21 reporter: -3%

What do the screens show for `Cc1ccc(C(=O)c2ccc([N+](=O)[O-])cc2)cc1C`?
GLA inh pH 4.5: -2; Rango release inh: -8%; Rango-impB inh: 0.2%; miR-21 reporter: -4%

Results for CCOc1ccc(NC(=O)CSc2ncn[nH]2)c([N+](=O)[O-])c1 ?
GLA inh pH 4.5: 1; Rango release inh: 3%; Rango-impB inh: -0.2%; miR-21 reporter: -11%

How did CCOc1ccc(S(=O)(=O)NCCC(=O)NC(C)CCc2ccccc2)cc1 (centres undefined) do in these assays?
Rango release inh: -13%; Rango-impB inh: 0.2%

Results for COC(=O)CSc1ncnc2c1sc1nc(-c3ccco3)c3c(c12)CC(C)(C)OC3 ?
GLA inh pH 4.5: 13; miR-21 reporter: -5%

Results for O=C(C1CCCCN1S(=O)(=O)c1ccccc1[N+](=O)[O-])N1CCCCC1 (centres undefined) ?
GLA inh pH 4.5: -1; Rango release inh: 3%; Rango-impB inh: -1.6%; miR-21 reporter: 2%

How did COc1cccc(C(=O)N2CCN(C(=O)C3CCCO3)CC2)c1 (centres undefined) do in these assays?
Rango release inh: 15%; Rango-impB inh: -1.9%

What do the screens show for `Cc1cccc(S(=O)(=O)Nc2ccc(C)c3c2OC(C)(C)C3)c1`?
GLA inh pH 4.5: 3; Rango release inh: 22%; Rango-impB inh: 4.3%; miR-21 reporter: -1%

Results for NC(=O)c1ccc(Nc2ccc([N+](=O)[O-])cc2[N+](=O)[O-])cc1 ?
GLA inh pH 4.5: -21; Rango release inh: 0%; Rango-impB inh: 3.3%; miR-21 reporter: -12%

What do the screens show for `O=C(NCC1CCCO1)C(C(=O)c1ccc(F)cc1)n1ccccc1=O` (centres undefined)?
GLA inh pH 4.5: 6; Rango release inh: 2%; Rango-impB inh: -0.5%; miR-21 reporter: 0%

Results for O=C(OCC1CCC=CO1)C1CCC=CO1 (centres undefined) ?
Rango release inh: -3%; Rango-impB inh: -4.2%

Results for COc1ccc2[nH]cc(C(O)CN3CCN(c4ccccc4F)CC3)c2c1 (centres undefined) ?
GLA inh pH 4.5: -2; Rango release inh: 4%; Rango-impB inh: 0.9%; miR-21 reporter: -2%

How did Cc1ccccc1-n1c(SCC(=O)c2c(N)n(C3CC3)c(=O)[nH]c2=O)nnc1N1CCOCC1 do in these assays?
Rango release inh: -7%; Rango-impB inh: 1.7%

How did Cc1ccc(S(=O)(=O)N2CCN(C(=S)NCC3CCCO3)CC2)cc1 (centres undefined) do in these assays?
Rango release inh: -16%; Rango-impB inh: -1.1%

What do the screens show for `CCCOC(=O)c1ccc(OCC(O)CN2C(=O)NC(C)(C)C2=O)cc1` (centres undefined)?
GLA inh pH 4.5: -3; Rango release inh: 15%; Rango-impB inh: 5.5%; miR-21 reporter: -1%

Five compounds from above, ordered by count of non-hydrogen atoms, ascending:
How did Cc1cccc(CSC(=N)N)c1 do in these assays?
GLA inh pH 4.5: 0; Rango release inh: 4%; Rango-impB inh: 3.2%; miR-21 reporter: -3%

Results for O=C(OCC1CCC=CO1)C1CCC=CO1 (centres undefined) ?
Rango release inh: -3%; Rango-impB inh: -4.2%

How did O=C(NCCc1ccccc1)c1cc2sccc2n1Cc1ccccc1 do in these assays?
GLA inh pH 4.5: 2; Rango release inh: -14%; Rango-impB inh: -1.6%; miR-21 reporter: -19%

Results for CC1=CCC(C(=O)O)(C(=O)N/N=C/c2cccs2)C(c2ccc(Cl)cc2)C1 (centres undefined) ?
GLA inh pH 4.5: 2; Rango release inh: -16%; Rango-impB inh: 3.2%; miR-21 reporter: -9%

How did C[C@H](NC(=O)[C@H](Cc1ccccc1)NC(=O)c1cc2cc(Cl)ccc2n1C)C(=O)O do in these assays?
Rango release inh: 18%; Rango-impB inh: 6.0%; miR-21 reporter: -1%

Screening data from PubChem.
